PABP polyA inh: blocks human PABP binding to poly(A) RNA; inhibition, % at 35 µM; 1% of 290,000 active; fluorescence polarization; P11940; AID 2014;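 active means 50% or more with normal probe brightness, or confirmed in later tests; inconclusive means above 50% with abnormal brightness, or retests that disagree; inactive means below 50% or failed in later tests; about a fifth of its hits are not listed in these tables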;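 further: calls also rest on retests at 20 µM and on dose response follow-up; controls were probe without protein and protein plus probe with vehicle; some compounds called inactive have numbers as strong as hits; many hits fall short of the cut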
Env fusion inh: blocks HIV Env-driven cell-cell fusion; inhibition, % at 12.3 µM; HeLa-JRFL Env/CEM21 cell fusion, luciferase; 1.1% of 360,000 active; AID 651610;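 active means mean replicate inhibition score of at least 50 and every replicate individually at or above 50; inconclusive means only one of the two criteria met; inactive means mean below 50 and not all replicates reaching 50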;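 further: 0% = plate neutral controls and 100% = maraviroc near 300 nM; one replicate is shown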
CSC inhib: cancer stem cell inhibition; cancer stem cell-like cells viability, luminescence; inhibition, % at 7.5 µM; 1.1% of 300,000 active; AID 2717;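 active means mean at 75% or more and at least half the replicates too; inconclusive means mean and replicates disagree; tested in HMLE shEcad cells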;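 further: 0% = median of negative and 100% = median of positive control wells; the first replicate is given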
MT1-MMP act inh: MT1-MMP (human) activation inhibition; HT1080 RFP-PRO-GFP cells, GFP/RFP ratio fluorescence, overnight; percent of plate control window, DMSO zero; GFP/RFP ratio change, % at 20 µM; 0.061% of 360,000 active; AID 651647;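 active means GFP/RFP ratio change of at least 30% with cell ATP level not reduced by more than half and red fluorescence within 50% of control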; further: strong numbers were not always called active
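Material: RFP-PRO-GFP reporter HT1080 cells. Dosing: single-point 20 µM compound, 1% DMSO. Controls: DMSO and RFP-L50D-GFP cell wells. Timing: cells overnight before dosing, compound overnight, 37 °C, 5% CO2. Measure: GFP/RFP fluorescence ratio.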
eIF4H inh: inhibitors of RNA binding by human eIF4H | Q15056 | eIF4H fluorescence polarization binding assay | inhibition, % at 35 µM | 0.94% of 290,000 active;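 active means 50% or more with normal probe brightness, or confirmed in later tests; inconclusive means above 50% with abnormal brightness, or retests that disagree; inactive means below 50% or failed in later tests; about a fifth of its hits are not listed in these tables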;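 further: calls also rest on retests at 20 µM and on dose response follow-up; 0% = protein and probe with vehicle and 100% = probe without protein; strong numbers were not always called active; many hits fall short of the cut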
Rce1 inh: blocks yeast Ras-converting enzyme | Q03530 | yeast membranes, quenched prenylated peptide cleavage fluorescence | calls only | 0.27% of 290,000 active;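 active means fall in fluorescence gain of 50% or more versus controls, with final raw signal at or below 3038400; inconclusive means same 50% fall but final raw signal above 3038400; inactive means fall in fluorescence gain under 50%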;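 further: plate controls were neutral control wells for no effect and wells lacking membranes for full effect; tested at 10 µM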
Target sequence (Q03530 whole entry, looked up): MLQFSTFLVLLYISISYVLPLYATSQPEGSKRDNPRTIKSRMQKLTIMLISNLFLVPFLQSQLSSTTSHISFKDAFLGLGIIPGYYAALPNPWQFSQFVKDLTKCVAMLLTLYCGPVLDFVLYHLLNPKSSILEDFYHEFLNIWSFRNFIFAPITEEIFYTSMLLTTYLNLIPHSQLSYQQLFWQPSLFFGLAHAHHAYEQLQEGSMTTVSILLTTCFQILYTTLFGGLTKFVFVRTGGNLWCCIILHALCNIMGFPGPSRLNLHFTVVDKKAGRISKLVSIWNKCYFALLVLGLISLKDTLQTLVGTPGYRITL
UUG fidelity: modulators of start codon recognition fidelity in yeast | S. cerevisiae UUG-firefly luciferase reporter, luminescence/redox ratio | activity score, % at 18.7 µM | 0.13% of 350,000 active;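 active means replicate mean at a twofold rise or more, about +100% in these data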;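 further: firefly luciferase made from a UUG start codon reports start codon fidelity; reporter light over untreated wells divided by growth signal over untreated wells; some hits fall short of that in this replicate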
MT1-MMP act inh RFP: further read-out of MT1-MMP act inh, marked with its call; RFP signal change, %; measured here: RFP expression control read;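 0 = vehicle wells; hits needed this value within 50% of zero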
* = called active by the depositor; i = inactive; ? = inconclusive; nt = not tested or not shown; & = joins results of further samples. Not all compounds are listed, so the mix of outcomes need not match the whole.

SMILES | PABP polyA inh | Env fusion inh | CSC inhib | MT1-MMP act inh | MT1-MMP act inh RFP | eIF4H inh | Rce1 inh | UUG fidelity
COc1cccc(CNC(=O)[C@H](C)NC(=O)N2CC(=O)Nc3ccccc32)c1 | nt | -2 | nt | 2 | 2 | nt | nt | -15
O=C(NC(=S)Nn1cnnc1)c1ccccc1Br | 7 | -2 | 2 | 7 | 2 | -5 | i | nt
CCOc1ccc(C(C)=O)cc1CN1C(=O)C(=O)N(CC)C1=O | -6 | 0 | -15 | 1 | 5 | -6 | nt | nt
O=C1OCCN1CC(=O)N1CCc2c([nH]c3ccccc23)C1c1ccccn1 (centres undefined) | 4 | 0 | 4 | -7 | 9 | -3 | i | -2
CCc1cccc2sc(N3CCN(C(=O)c4ccc([N+](=O)[O-])o4)CC3)nc12 | nt | nt | 5 | -4 | -15 | nt | i | 4
Cn1c(=NC(=O)CN2C(=O)C3CC=CCC3C2=O)sc2ccccc21 (centres undefined) | 1 | nt | 10 | 1&0 | 1&1 | 1 | i | -8
COc1cc(C2C(C(=O)N3CCOCC3)=C(C)NC3=C2C(=O)CCC3)ccc1OC(C)=O (centres undefined) | 1 | nt | -9 | -2 | 5 | -4 | i | 7
COc1c(OC(C)=O)ccc(/C=C/c2ccc3cccc(OC)c3n2)c1[N+](=O)[O-] | 16 | -6 | nt | 7 | -6 | -4 | i | nt
Cc1ccc2nc(NC(=O)CSc3ncnc4c3oc3ccccc34)sc2c1 | 6 | -7 | nt | 1 | 0 | -12 | i | -17
Cc1cccc(NC(=O)c2csnn2)n1 | -9 | 7 | 8 | 2 | 3 | 3 | i | nt
Cc1cccc(CC(=O)Nc2c3c(nn2-c2cccc(Cl)c2)CS(=O)C3)c1 (centres undefined) | 4 | 12 | -4 | -2 | -3 | 8 | i | -19
Cc1noc(C)c1COC(=O)c1ccc2ccccc2n1 | 4 | nt | 6 | -1 | 2 | 5 | i | -8
CCc1nc2c(OCc3ccc(Cl)cc3)cccn2c1N(C)C(=O)c1ccccc1F | nt | -8 | nt | -8 | -5 | nt | nt | -22
Cc1cc(CN2CCCCC2)oc1C(=O)O | 15 | nt | -1 | 1 | 3 | -4 | i | nt
CCSc1ccc(-c2cc(NC=O)c3ncc(-c4cccc(C(=O)NCCN(C)C)c4)n3c2)cc1 | nt | 5 | nt | -6 | 1 | nt | nt | -19
COc1cccc(NC(=O)C2(C)CCCN(C(C)C)C2)c1 (centres undefined) | nt | -22 | nt | 4 | 4 | nt | nt | 4
COCCn1c(-c2ccccc2)cnc1SCC(=O)Nc1cccc2ccccc12 | 1 | 29 | -9 | 0 | -3 | -9 | i | 0
CN=C(N)NCCC[C@H](N)C(=O)O | nt | 16 | -6 | 2 | 3 | nt | nt | -21
OC(c1ccc(F)cc1)c1nc(-c2cncnc2)cs1 (centres undefined) | nt | 19 | nt | -4 | -4 | nt | nt | -18
C=CCN1C(=O)c2ccccc2Sc2ccc(C(=O)NCCC)cc21 | 3 | 12 | -10 | -2 | -1 | 0 | i | 7
Cc1cc(C)cc(NC(=O)CN2CCC(NC(=O)c3cccc(F)c3)CC2)c1 | 5 | 18 | 0 | 3 | -1 | -6 | i | 0
COc1ccc([C@H]2CC(=O)C=C(c3cc(Cl)ccc3OC)C2)cc1 | nt | 16 | 50 | -2 | -8 | nt | nt | -7
Cc1noc(C)c1C(=O)N1CCN(Cc2ccccc2)CC1 | -3 | nt | -7 | 2 | 3 | 0 | i | -8
NNC(=O)c1cccn(Cc2ccc(Cl)cc2Cl)c1=O | -4 | -6 | -2 | nt | nt | -6 | i | -13
CC(=O)Nc1ccc(S(=O)(=O)Oc2ccccc2N2C(=O)C3C4CCC(C4)C3C2=O)cc1 (centres undefined) | -8 | 1 | -13 | -7 | 4 | 32 | i | -10
Next structures
SMILES | PABP polyA inh | Env fusion inh | CSC inhib | MT1-MMP act inh | MT1-MMP act inh RFP | eIF4H inh | Rce1 inh | UUG fidelity
Cn1ncc(Br)c1C(=O)OCC(=O)Nc1nc(-c2ccccc2)cs1 | 5 | -166 | 2 | 2 | 3 | 3 | i | -10
O=C(NCCCc1ccccc1)c1cccc(NC(=O)c2ccccc2)c1 | nt | -6 | nt | -2 | -1 | nt | nt | 14
CCN(CC)CCn1c2c(c(SCC(=O)Nc3cc(C)on3)nc1=O)CCCC2 | nt | 6 | -20 | -2 | 1 | nt | i | 2
O=C(Nc1cccc(Cl)c1)c1cc(F)cc2c1OCOC2 | -8 | 11 | 2 | -2 | 2 | 6 | nt | nt
CCOc1ccc(N2C(=O)CC(N(CCc3ccc(OC)c(OC)c3)C(=S)Nc3ccccc3)C2=O)cc1 (centres undefined) | -1 | 58* | nt | 0 | -7 | -4 | i | nt
CCOC(=O)C1(Cc2ccccc2Cl)CCN(S(=O)(=O)N(C)C)CC1 | 0 | ? | -12 | 0 | 1 | -2 | i | nt
O=C(CN(Cc1ccco1)C(=O)c1cc(=O)[nH]c2ccccc12)Nc1ccccc1Br | 2 | nt | -2 | 3 | 16 | -2 | i | 13
CCN(CC)S(=O)(=O)c1ccc2[nH]cc(C(=O)NCCN3CCCCCC3)c(=O)c2c1 | 10 | -38 | -11 | 2 | 2 | -2 | i | -3
NC(=O)c1ccc(-c2noc(-c3ccccc3F)n2)cc1 | nt | -261 | 7 | 0 | 4 | nt | nt | -22
O=C(CCn1nc(-c2ccc(Cl)cc2)c2ccccc2c1=O)NCCN1CCOCC1 | 1 | -29 | 10 | -5 | -3 | -8 | i | -37
O=C(Nc1ccc(Oc2ncnc3cc(Cl)ccc23)nc1)c1ccc(F)cc1 | -4 | nt | -5 | nt | nt | 2 | i | nt
CCN(C(=O)Cc1c(C(=O)O)n(C)c2ccccc12)c1cccc(C)c1 | 5 | 5 | -4 | -2 | 1 | -8 | i | nt
C/C(Cn1nnc2ccccc21)=N\OC(=O)c1cc(F)c(F)cc1Cl | -3 | -2 | -10 | 0 | 2 | -16 | nt | nt
CCOC(=O)/C=C/[C@H]1CC(c2ccccc2)(c2ccccc2)CO1 | nt | 4 | 10 | -4 | -1 | nt | nt | -10
Cc1ccc2c(Cl)c(C(=O)Nc3cc(C)on3)sc2c1 | -6 | -264 | nt | -4 | -4 | 4 | i | -21
COc1ccc(-c2cc(C(=O)Nc3nc4c(C)cccc4s3)c3ccccc3n2)cc1OC | 0 | nt | nt | -44 | -23 | -8 | i | nt
Nc1nc(CCl)nc(Nc2cccc3ccccc23)n1 | -5 | 30 | 3 | -4 | -14 | 4 | i | -21
O=C(CSc1nc2c(c(=O)[nH]1)CN(Cc1ccc(F)cc1)CC2)Nc1ccc(F)cc1 | 0 | nt | -2 | 4 | -9 | 11 | i | nt
Cc1cccc(OCc2nnc(SCc3cc(=O)n4cc(Br)ccc4n3)o2)c1 | -7 | nt | 14 | 10 | -6 | -5 | i | 0
Cc1ccc(S(=O)(=O)N2CCN(C3CC(=O)N(c4ccc(F)cc4)C3=O)CC2)cc1C (centres undefined) | nt | nt | -2 | 2 | 0 | nt | nt | -23
COc1ccc(-c2noc(-c3ccccc3F)n2)cc1 | 2 | -244 | -1 | -2 | -3 | 4 | i | -35
Cc1cc(-c2nnc(CCC(=O)N3CCN(Cc4cccnc4)CC3)o2)c(C)o1 | 14 | -10 | -13 | -4 | 0 | 12 | i | 0
CCN(CC)S(=O)(=O)c1cccc(NC(=O)c2ccc(C#N)cc2)c1 | 0 | 7 | -16 | 5 | -7 | 8 | i | nt
Cc1cc(NC(=O)c2ccc3nc(-c4ccccc4)c(-c4ccccc4)nc3c2)no1 | 4 | -32 | 2 | -3 | 4 | -5 | i | -10
COc1ccc(-c2csc(N3CCC(c4ccccc4)C3)n2)cc1 (centres undefined) | -5 | -6 | -8 | -4 | -10 | -7 | i | -15
(next part)
SMILES | PABP polyA inh | Env fusion inh | CSC inhib | MT1-MMP act inh | MT1-MMP act inh RFP | eIF4H inh | Rce1 inh | UUG fidelity
Cc1nn(-c2ccc(C(=O)O)cc2)c2c1C(=O)CC(C)(C)C2 | -8 | 12 | 2 | 4 | 3 | 10 | i | nt
COCCNC(=O)c1cccc2c1-c1ccccc1C2=O | -10 | 6 | 0 | -3 | 3 | -12 | i | -6
Cc1ccccc1C(=O)Nc1ccnn1C1CCN(CCCc2ccccc2)CC1 | -13 | -43 | -15 | -2 | 2 | -7 | i | -12
CCC(Sc1nnnn1-c1ccccc1)C(=O)NC(C)c1ccccc1 (centres undefined) | -8 | nt | -2 | -2 | -3 | -3 | i | nt
CC(C)(C)c1ccc(OCC(=O)Nc2ccc(C(=O)Nc3ccccc3C(=O)O)cc2)cc1 | 17 | 1 | 34 | 3 | 7 | -3 | i | -5
CCC(C)[C@H](NS(=O)(=O)c1ccc(C)cc1)C(=O)N1CCC(C(=O)N[C@H](C(=O)O)c2ccccc2)CC1 (some centres undefined) | 12 | nt | -6 | -1 | 2 | 4 | nt | 7
COCCN(C(=O)COC(=O)c1c(NC(C)=O)sc(C)c1C)c1c(N)n(Cc2ccccc2)c(=O)[nH]c1=O | nt | 0 | -6 | -1 | -8 | nt | i | nt
Cc1nc(N2CCOCC2)nc(N2CCCC2)c1[N+](=O)[O-] | -8 | nt | 19 | 1 | 3 | -8 | i | -23
CCOC(=O)C1=C(O)C(=O)N(c2ccc(S(N)(=O)=O)cc2)C1c1cccc([N+](=O)[O-])c1 (centres undefined) | 3 | -3 | -14 | 2 | 4 | 1 | i | nt
O=C(Cc1ccc(Cl)cc1)Nc1ccccc1CO | -5 | nt | -3 | 0 | 3 | 3 | nt | -15
O=C(O)CP(=O)(O)O | 11 | 11 | 8 | 0 | -3 | 3 | i | 3
COc1ccc(OC)c(S(=O)(=O)N2CCCC(C(=O)N3CCCCCC3)C2)c1 (centres undefined) | -13 | 14 | -24 | 1 | -1 | -10 | i | 11
O=C(CN1CCC(n2nnc3cc(F)ccc32)CC1)NCCc1ccccc1 | 5 | nt | -12 | -1 | 1 | 10 | i | -10
O=C(CCCn1c(=S)[nH]c2ccccc2c1=O)N1CCCCC1 | 1 | -7 | -9 | 1 | -5 | 0 | i | -8
O=C(CSc1nc(O)cc(=O)[nH]1)N1c2ccccc2Sc2ccccc21 | 7 | -5 | -6 | 2 | 2 | -7 | i | 16
Cc1cccc(NC(=O)CCC(=O)Nc2nnc(C3CCCCC3)s2)c1 | 4 | 5 | 1 | 4 | 4 | -7 | i | -12
CCCSc1nc2cc(S(=O)(=O)N3CCOCC3)ccc2n1CC | -2 | -5 | -7 | 1 | 1 | -20 | i | 2
CCOC(=O)c1ccc(N2Cc3ccccc3C2)cc1O | 12 | nt | 6 | -1 | 0 | 8 | i | 5
COc1ccc(CNC(=O)CN2CCC(NC(=O)c3ccc(OC)cc3)CC2)cc1 | 7 | 9 | nt | 5 | 4 | 4 | i | 0
Cc1cc(C(=O)COC(=O)Cn2cnc3c2c(=O)n(C)c(=O)n3C)c(C)n1C | 5 | -31 | -10 | -4 | 0 | 1 | i | 9
O=C(NC1CCC1)C1CCC(=O)N(Cc2ccccc2F)C1 (centres undefined) | 9 | -4 | 12 | 1 | 5 | -4 | i | -7
O=c1[nH]nc(SCc2ccccc2Cl)n1-c1ccc2c(c1)OCCO2 | 2 | 12 | -24 | 1 | -3 | -5 | i | -14
CC(=O)Nc1ccc2sccc2c1 | 5 | -12 | -5 | -5 | 0 | -5 | i | nt
CCOC(=O)C(C)Sc1ncnc2c1nnn2-c1ccc(F)cc1 (centres undefined) | 2 | nt | nt | -2 | -4 | -2 | i | -15
Cc1cc(=O)n2nc(N3CCCC(C(=O)NCCCN4C(C)CCCC4C)C3)sc2n1 (centres undefined) | nt | -2 | nt | -3 | -2 | nt | nt | 2

Screening data as filed in PubChem BioAssay.
